From PubChem
ClpP mod = qHTS Assay for Activators of ClpP | hit rate 1.9% among 340,000 | AID 651965, 2013 | ATP-dependent Clp protease proteolytic subunit (Bacillus subtilis (strain 168)), P80244 | purified B. subtilis ClpP, FRET peptide cleavage, 20 min | Potency, µM (top dose mostly 57.5 µM), for the others: top-dose activity change, negative = active; active = well fitted falling curve with a large enough effect; inconclusive = small, poorly fitted or top-dose-only effect; inactive = no such curve, though single readings can be large or run the other way; also: potency is read from the fitted curve at half-maximal effect; the source files actives as falling curves though it sought activators and does not explain the sign; nearly all actives have a fitted effect of over 65% in size; many hits overshoot -100%
Target sequence (P80244 whole entry, looked up): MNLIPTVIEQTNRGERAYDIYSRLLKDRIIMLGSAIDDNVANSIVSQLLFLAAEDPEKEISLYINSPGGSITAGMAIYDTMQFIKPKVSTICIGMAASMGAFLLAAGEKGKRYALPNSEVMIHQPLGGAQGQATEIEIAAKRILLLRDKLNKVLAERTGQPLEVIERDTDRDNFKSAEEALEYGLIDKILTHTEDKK
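Buffer: 100 mM Tris/HCl pH8, 100 mM KCl, 0.05% low protease BSA, 2.5% glycerol, 0.01% Tween-20. ClpP 10 microg/mL final; 20 min RT; delta FRET normalized to ADEP and DMSO controls.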
TRPV1 potentiator = potentiators of human vanilloid receptor 1 (TRPV1) | Q8NER1 | TRPV1-expressing cells, Fluo-8 calcium influx, capsaicin EC20 potentiation; host cell line not named in the record; control for the full effect not named in the record | potentiation, % at 8.33 µM | hit rate 0.02% among 320,000 | AID 540277; active means potentiation above 80%; inconclusive means 30% to 80%; inactive means below 30%; also: 0% is about no effect
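Cells expressing TRPV1 were dye-loaded with Fluo-8 and read kinetically: 10 s baseline, 3 min after compound (agonist portion), then 2 min after EC20 capsaicin (allosteric enhancer portion). Calcium-bound dye fluorescence at 480/520 nm.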
TRPML1 ag = activates the human TRPML1 channel | hit rate 0.12% among 410,000 | activation, % (concentration not given with the values) | Q9GZU1 | TRPML1-expressing cells, Ca2+ dye fluorescence, FDSS; host cell line not named in the record; reference of the full effect not given here; in the data active = activation above about 50%; inconclusive = about 30% to 50%; inactive = below about 30%; also: 0% is about no effect; the text of the record puts the active cut at 80%
Target sequence (Q9GZU1 whole entry, looked up): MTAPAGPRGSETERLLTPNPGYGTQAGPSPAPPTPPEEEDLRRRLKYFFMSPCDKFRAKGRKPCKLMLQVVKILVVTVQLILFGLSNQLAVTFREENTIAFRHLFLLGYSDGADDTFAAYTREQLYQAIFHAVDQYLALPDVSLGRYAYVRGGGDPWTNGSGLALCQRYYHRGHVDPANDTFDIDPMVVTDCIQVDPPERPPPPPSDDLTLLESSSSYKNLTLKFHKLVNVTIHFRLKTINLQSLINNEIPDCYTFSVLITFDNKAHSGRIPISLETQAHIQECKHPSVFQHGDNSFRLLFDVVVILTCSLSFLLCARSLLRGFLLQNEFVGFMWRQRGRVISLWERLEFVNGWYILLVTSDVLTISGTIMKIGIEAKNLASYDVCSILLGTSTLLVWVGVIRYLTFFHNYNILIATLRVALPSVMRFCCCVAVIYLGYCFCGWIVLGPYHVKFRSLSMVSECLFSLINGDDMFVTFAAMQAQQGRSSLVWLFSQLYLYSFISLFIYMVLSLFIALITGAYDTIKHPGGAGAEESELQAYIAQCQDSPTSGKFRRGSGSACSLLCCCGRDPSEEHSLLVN
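Agonist activity was taken from a 110 s kinetic Ca2+ dye read on the FDSS after pinning compounds onto TRPML1-DL cells. The cells were seeded at 1,500/well with Tet inducer, incubated about 16 h, then dye-loaded at room temperature.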
Menin-MLL FL inh = menin-MLL binding inhibition, fluorescein peptide; FP activity change, % at 61.4 µM; 290,000 tested, under 10 active; Fluorescence polarization, fluorescein-MLL peptide displacement from menin; inconclusive = falling polarisation curve, or a change in total fluorescence; inactive = total fluorescence flat and polarisation flat or rising; no compound was filed as active; the % refers to the polarisation; negative = inhibition;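 also: % of control where 0% means no effect; inhibitors lower the polarisation; unlabelled MLL peptide was the positive control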
PINK1 modulator = modulators of PINK1 expression | PINK1 immunofluorescence, high-content cytometry, 24 h | Potency, µM (doses to about 76.6 µM), for inactives: at the top dose activation (PINK1 increase), most hits filed as activators | hit rate 0.2% among 410,000 | AID 624263; active = well fitted activation curve with a large enough effect; inconclusive = small, poorly fitted or top-dose-only effect; inactive = flat fitted curve, though single readings scatter; cell line not stated here;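 also: potency is read from the fitted curve at half-maximal effect; % of control where 0% means no effect; nearly all actives have a fitted effect of over 65% in size; a mitochondrial uncoupler was the plate control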
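A stable cell line was treated with compounds at 5 concentrations for 24 hours, with CCCP as control. PINK1 levels and mitochondrial localization were measured by immunofluorescence with mitochondrial, cell and nuclear markers after fixation, read by laser-scanning cytometry.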
TRPML1 blocker = blocks the human TRPML1 channel | Q9GZU1 | TRPML1-inducible cells, Ca2+ dye fluorescence, FDSS; hits give low values; inhibition of EC80 agonist-evoked calcium signal | activity change, negative = inhibition, % (test concentration not listed) | hit rate 0.02% among 390,000 | AID 624415; in the data active means activity change below about -50%; inconclusive means about -30% to -50%; inactive means above about -30%;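 also: stimulus is agonist 54-4 at its EC80 concentration; % is scaled to controls: 0 for no effect and ±100 for the full control effect; compound concentration not given in the record; the text of the record puts the active cut at -80%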
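TRPML1-DL cells, Tet-induced overnight (~16 h, 37 °C) at 1,500 cells/well, were loaded with Ca8 no-wash dye plus quencher for 45-90 min at room temperature. Compounds were pinned during FDSS kinetic reading; agonist 54-4 at EC80 (4 uM final) then added.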
Sfp inh = blocks B. subtilis Sfp PPTase activity; Q9F4F7; Biochemical Sfp PPTase activity, qHTS; Potency, µM, for the others: max response, negative = inhibition, hits mostly inhibitors; hit rate 3.5% among 310,000; active = well fitted inhibition curve with a large enough effect; inconclusive = small, poorly fitted or top-dose-only effect, or another doubt; inactive = no such curve, though single readings can be large or run the other way;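 also: the enzyme is Sfp with the accession as filed and its product quenches rhodamine fluorescence; potency is read from the fitted curve at half-maximal effect; 0% = enzyme reaction without inhibitor and -100% = no enzyme wells; top concentration of the series not given in the record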
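Fluorescence-quenching assay with 15 nM Sfp, 5 uM rhodamine-CoA and 12.5 uM BHQ-2-labelled ybbR peptide in pH 7.6 Hepes/MgCl2 buffer. Enzyme was pre-incubated with compound for 15 min at room temperature. Rate was taken from the 30-min fluorescence change (525/598 nm).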
* marks the source's active call; other numbers are inactive results; ? = inconclusive; . = not tested or not shown; & = joins results of further samples; [ ] = another dose, or the depositor's remark.

Start of the listing, in advance (two entries):
SMILES	ClpP mod	TRPV1 potentiator	TRPML1 ag	Menin-MLL FL inh	PINK1 modulator	TRPML1 blocker	Sfp inh
Cc1cc(OCC(=O)N2CCC(C(=O)O)CC2)c2c(C)cc(=O)oc2c1	4.3%	-4	.	-8.3	-0.5%	.	14%
CC1(NC(=S)Nc2ccc(NC(=S)NC3(C)CCS(=O)(=O)C3)cc2)CCS(=O)(=O)C1 (centres undefined)	-2.2%	3	1.2	0.3	2.4%	-4	0%

Results, from the first entry:
SMILES	ClpP mod	TRPV1 potentiator	TRPML1 ag	Menin-MLL FL inh	PINK1 modulator	TRPML1 blocker	Sfp inh
Cc1cc(OCC(=O)N2CCC(C(=O)O)CC2)c2c(C)cc(=O)oc2c1	4.3%	-4	.	-8.3	-0.5%	.	14%
CC1(NC(=S)Nc2ccc(NC(=S)NC3(C)CCS(=O)(=O)C3)cc2)CCS(=O)(=O)C1 (centres undefined)	-2.2%	3	1.2	0.3	2.4%	-4	0%
Cc1cccc(CS(=O)(=O)Cc2ccc(C(=O)NCc3ccc(Cl)cc3)o2)c1	-3.8%	.	-0.1	.	3.7%	19	.
Cc1cc(C)nc(/N=C2\NC(=O)CC(C(=O)O)N2c2ccc(Cl)cc2)n1 (centres undefined)	-1.2%	25	-0.6	0.2	0.2%	11	4%
CC(C(=O)Nc1ccc(O)c(C(=O)O)c1)N1C(=O)/C(=C/c2cccs2)SC1=S (centres undefined)	-1.2%	11	1.0	.	1.8%	26	?
CC(C)c1cccc(-c2csc(C(O)c3ccccc3)n2)c1 (centres undefined)	-2.5%	.	0.1	.	2.4%	.	.
O=c1cc(O)nc(SCc2ccccc2)n1-c1ccc(Cl)cc1	.	3	0.0	1.0	-1.5%	6	10%
COc1cccc(NC(=O)c2cc3ccccc3o/c2=N\O)c1	-9.5%	-1	.	-0.5	3.9%	.	-2%
O=C(Nc1ccc(Cl)c(S(=O)(=O)N2CCOCC2)c1)c1cccs1	4.5%	.	0.2	.	0.9%	9	.
CC(C)[C@H]1C(=O)Nc2ccccc2N1C(=O)N[C@@H](Cc1ccccc1)C(=O)N[C@@H](C(=O)O)c1ccccc1	-1.6%	18	.	-3.1	-0.9%	.	14%
N=C1c2ccccc2CN1NC(=O)COc1ccc(Cl)cc1	0.9%	4	2.1	-0.7	-0.4%	11	0%
COC(=O)c1ccc(NC(=O)CC2C(=O)N(c3cccc(OC)c3)C(=O)N2Cc2cccc(OC)c2)cc1 (centres undefined)	1.3%	.	0.1	.	0.8%	10	.
CC(O)(CS(=O)(=O)Cc1ccccc1)c1ccccc1 (centres undefined)	1.8%	20	3.3	1.0	-2.0%	-25	1%
CC(C)N(C)CCOC(=O)C1COc2ccccc2O1 (centres undefined)	-0.1%	-4	-0.2	-1.8	0.9%	-5	2%
O=C(c1cccc(-n2cccc2)c1)N1CCN(S(=O)(=O)c2ccccc2)CC1	.	-1	0.6	.	-0.5%	-1	.
CC(NO)/C(=N\O)c1cccs1 (centres undefined)	0.7%	-6	0.3	2.2	.	-8	?
O=C(Cc1cnn(-c2ccccc2)c1)c1ccc(O)c(O)c1O	-2.5%	-5	-0.5	-2.1	0.7%	-17	32µM*
CCCCNC(=O)C(c1ccc(OCC(=O)OC)c(C(=O)OC)c1)N(CCOC)C(=O)CCCCCN1C(=O)NC(c2ccc(-c3ccccc3)cc2)C(C(=O)OCc2ccccc2)=C1C (centres undefined)	.	?	.	2.4&4.0	.	.	4%&12%
O=C(Cn1c(NCCO)nc2ccccc21)NCC(F)(F)F	-1.8%	6	-0.2	0.5	-0.5%	20	?
O=C(O)c1cc(C(=O)O)cc(N2C(=O)CSC2=S)c1	-13%	0	-0.3	6.2	1.8%	-5	-30%
C[C@H](CO)N1C[C@H](C)[C@H](CN(C)C(=O)Nc2ccc(-c3cccs3)cc2)OCc2cnnn2CCCC1=O	-20%	.	0.0	.	1.2%	-1	.
COC(=O)/C=c1/sc2n(c1=O)CCN=2	?	0	-0.2	1.7	-0.6%	31	7%
O=C(CN1C(=O)NC2(CCCC2)C1=O)OCCOc1cccc(Cl)c1	-0.9%	-23	0.5	.	1.4%	-5	.
COc1ccc(C2Nc3ccccc3C(=O)N2c2ccc(C)cc2)cc1COc1ccccn1 (centres undefined)	32µM*	-2	0.4	-1.4	-0.3%	-6	13%
CC1=C(C(=O)Nc2ccccc2C(=O)N2CCC(C)CC2)SCCO1	-0.6%	-9	-0.6	.	0.8%	-10	3%
CCCCN(CCCC)CCNC(=O)CN1C(=O)CSc2ccc(S(=O)(=O)N3CCCCC3)cc21	-0.8%&0.3%	3	0.9&1.0	-3.6	-0.3%&0.7%	10&-13	15%
O=C(C1=C[C@@H]2[C@H]3C(=O)N(c4ccc(Cl)cc4)C(=O)[C@H]3[C@@H](C(=O)c3ccc(Cl)cc3)N2C=C1)c1ccccc1	-2.2%	10	0.5	?	2.4%	37	-3%
CN1CCN(c2ccc(C(=O)c3ccc(F)cc3)cc2)CC1	-2.5%	3	0.1	1.1	-2.3%	9	16%
O=S(=O)(NCCOC12CC3CC(CC(C3)C1)C2)c1cccc2nsnc12	-0.6%	6	0.1	1.9	-0.5%	25	-2%
O=C(CCn1nc(-c2ccccc2)c2ccccc2c1=O)Nc1ccccc1	0.8%	.	-0.1	.	2.5%	-16	.
Cc1cc(C)c(C)c(S(=O)(=O)N2CCN(C(=O)c3ccc4c(=O)n5c(nc4c3)CCC5)CC2)c1C	-11%	7	-0.7	.	1.4%	-13	.
O=C(Cn1nc2c(cc1=O)CCCC2)NCc1ccc(Cl)cc1	0.0%	.	0.8	.	6.6%	0	.
CC(=O)N1CCN(Cc2nc(-c3cccc(Cl)c3)no2)CC1	.	-6	0.5	0.4	-0.2%	-8	6%
O=C(c1ccc(S(=O)(=O)NCc2ccco2)cc1)N1CCN(Cc2ccccc2)CC1	.	-1	2.6	-2.6	0.1%	-5	16%
COCCN1C(=O)c2ccc(C(=O)Nc3nccs3)cc2C1=O	-0.2%	-4	-0.1	0.6	1.7%[38.3 µM]	20	14%
Cn1cc(C(=O)C(=O)N2CCCc3ccccc32)c2ccccc21	-0.4%	-9	-1.3	-2.8	6.1%	-9	12%
CC(C)OCCCN(C)C1CCN(S(=O)(=O)c2ccc(-c3ccc(=O)[nH]n3)s2)CC1	-7.1%	5	-0.3	-6.2	-0.1%	-1	2%
N#Cc1ccccc1OCCn1cncn1	-1.3%	9	-0.5	-3.4	0.0%	2	8%
COc1ccc(C2/C(=C(\O)c3ccc(OC)c(Cl)c3)C(=O)C(=O)N2CCN(C)C)cc1 (centres undefined)	-1.8%	8	0.4	-5.2	-1.1%	14	1%
CCc1nn(CC(=O)NCCCN(CC(C)C)CC(C)C)c(=O)c2cc3sc(C)cc3n12	-5.2%	.	0.6	.	0.5%	-3	.
COC(=O)c1ccc(C(=O)N2CCCC(Nc3ccc(C(C)C)cc3)C2)cc1 (centres undefined)	1.6%	26	1.7	-0.8	-0.8%	-15	-4%
C=CCn1c(SCC(C)=O)nc2scc(-c3ccc(C)o3)c2c1=O	0.2%	-1	1.3	-4.2	0.1%	18	50µM*
O=S(=O)(c1ccc(Cl)nc1)N1CCC(Cc2ccccc2)CC1	-0.4%	.	5.1	.	7.5%	-4	.
C[C@@H]1NC(=O)[C@H](CCC(N)=O)NC(=O)c2cc([N+](=O)[O-])cc(I)c2NCCC[C@@H](C(N)=O)NC1=O	-3.7%	11	-0.8	2.8	0.1%	-9	-6%
CCCCN(C(=O)c1ccc(Cl)c([N+](=O)[O-])c1)c1c(N)n(CCC)c(=O)[nH]c1=O	.	-1	-0.7	-0.4	-0.3%	0	8%
OC(c1ccccn1)c1c[nH]c2ccccc12 (centres undefined)	-3.5%	-8	-0.9	-0.2	3.0%	12	3%
Cc1ccc2oc(C(=O)NCCC3CCCCO3)c(C)c2c1 (centres undefined)	-22%	-8	2.3	.	4.0%	-8	1%
Cn1c(SCc2n[nH]c(=S)n2-c2ccccc2)nnc1-c1ccccc1	-17%	28	-0.5	-2.5	-1.9%	-14	-11%
CC(C)N1CCC(N2CCN(Cc3ccc(-c4ccc(Cl)cc4)o3)CC2CCO)CC1 (centres undefined)	.	-2	-0.1	0.9	0.6%	-5	-18%
CC(Oc1ccc2c(c1)oc(=O)c1ccccc12)C(=O)NCC1CCC(C(=O)O)CC1 (centres undefined)	4.8%	10	.	-1.1	-1.3%	.	14%
CCn1c(COc2ccc(=O)n(-c3ccccc3)n2)nnc1SCc1ccc(C)cc1	-1.7%	?	-0.5	8.6	5.4%[38.3 µM]	2	11%
COc1ccc(N2CC(NC(=O)N(C)CCC#N)CC2=O)cc1 (centres undefined)	.	-20	0.0	-1.0	2.3%	-6	10%
CCOc1nc(C)cc(C)c1S(=O)(=O)c1ccc(Cl)cc1	.	0	0.3	0.9	1.5%	-2	3%
Nc1oc2ccccc2c(=O)c1C=O	1.5%	-10	-0.1	8.5	0.7%	4	-3%
CC(C)C[C@H](NC(=O)OC(C)(C)C)c1nnc(SCc2cccc(F)c2)o1	-3.6%	7	13	3.0	3.1%	2	1%
COc1ccc(OCCNC(=O)/C=C/c2ccc([N+](=O)[O-])cc2)cc1	-23%	-12	-1.0	3.8	-0.8%	9	-6%
COC(=O)c1sc2nc(-c3ccccc3)c3c(c2c1N)CCCC3	?	-3	2.7	2.4	-3.7%	62	-17%
CC1Cc2ccccc2N1S(=O)(=O)c1cccc(C(=O)NNC(=O)c2ccccc2F)c1 (centres undefined)	1.3%	-11	-0.8	.	8.7%	-1	.
O=C1[C@H]2[C@@H](c3ccc(F)cc3)N3C(=O)N(c4cccc(Br)c4)C(=O)[C@@]3(Cc3ccccc3)[C@H]2C(=O)N1C1CCCCC1	-0.7%	?	0.9	.	1.8%	16	.
CCCn1c(SCC(=O)Nc2c(C)cccc2C)nnc1C(C)C	1.2%	2	0.0	1.1	0.7%	-4	18%
COc1ccccc1N1CCN(C(=O)C2CCN(S(=O)(=O)c3cccs3)CC2)CC1	-3.2%	.	-0.2	.	0.1%	-26	.
Cc1cccc(CNc2ncncc2-c2ccccc2C(F)(F)F)c1	.	.	.	1.4	-0.1%	.	-29%
